TRPML1 ag: agonists of human TRPML1 channel; Q9GZU1; TRPML1-expressing cells, Ca2+ dye fluorescence, FDSS; host cell line not named in the record; reference of the full effect not given here; activation, % (no concentration beside the values); 0.12% of 410,000 active; in the data active = activation above about 50%; inconclusive = about 30% to 50%; inactive = below about 30%; note: 0% is about no effect; the text of the record puts the active cut at 80%
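Kinetic FDSS Ca2+ read in Tet-induced TRPML1-DL cells (ABD Ca8 dye plus quencher, 45-90 min RT loading): baseline, then compound, then 110 s agonist window; EC80 agonist 54-4 at 4uM final added afterwards for a 110 s antagonist window.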
CtBP-E1A inh: CtBP/E1A binding inhibition; activity change, % (test concentration not listed); 0.49% of 340,000 active; AlphaScreen GST-E1A/His-CtBP binding, 1536-well; stronger effect = lower value; control for the full effect not named in the record; in the data active means activity change below about -65%; inconclusive means about -30% to -65%; inactive means above about -30%; note: % is set by controls: 0 for no effect and ±100 for the full control effect; compound concentration not given in the record
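In 5 uL wells, 23 nL compound meets equimolar GST-E1A and His-CtBP (5X stock 125 nM each) for 2 h, 37 °C. Beads (5X, 50 ug/mL) then 1 h, 37 °C, dark.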
TRPV1 PAM: human TRPV1 potentiation; Q8NER1; TRPV1-expressing cells, Fluo-8 calcium influx, capsaicin EC20 potentiation; host cell line not named in the record; control for the full effect not named in the record; potentiation, % at 8.33 µM; 0.02% of 320,000 active; active means potentiation above 80%; inconclusive means 30% to 80%; inactive means below 30%; note: 0% is about no effect
Target sequence (Q8NER1 whole entry, looked up): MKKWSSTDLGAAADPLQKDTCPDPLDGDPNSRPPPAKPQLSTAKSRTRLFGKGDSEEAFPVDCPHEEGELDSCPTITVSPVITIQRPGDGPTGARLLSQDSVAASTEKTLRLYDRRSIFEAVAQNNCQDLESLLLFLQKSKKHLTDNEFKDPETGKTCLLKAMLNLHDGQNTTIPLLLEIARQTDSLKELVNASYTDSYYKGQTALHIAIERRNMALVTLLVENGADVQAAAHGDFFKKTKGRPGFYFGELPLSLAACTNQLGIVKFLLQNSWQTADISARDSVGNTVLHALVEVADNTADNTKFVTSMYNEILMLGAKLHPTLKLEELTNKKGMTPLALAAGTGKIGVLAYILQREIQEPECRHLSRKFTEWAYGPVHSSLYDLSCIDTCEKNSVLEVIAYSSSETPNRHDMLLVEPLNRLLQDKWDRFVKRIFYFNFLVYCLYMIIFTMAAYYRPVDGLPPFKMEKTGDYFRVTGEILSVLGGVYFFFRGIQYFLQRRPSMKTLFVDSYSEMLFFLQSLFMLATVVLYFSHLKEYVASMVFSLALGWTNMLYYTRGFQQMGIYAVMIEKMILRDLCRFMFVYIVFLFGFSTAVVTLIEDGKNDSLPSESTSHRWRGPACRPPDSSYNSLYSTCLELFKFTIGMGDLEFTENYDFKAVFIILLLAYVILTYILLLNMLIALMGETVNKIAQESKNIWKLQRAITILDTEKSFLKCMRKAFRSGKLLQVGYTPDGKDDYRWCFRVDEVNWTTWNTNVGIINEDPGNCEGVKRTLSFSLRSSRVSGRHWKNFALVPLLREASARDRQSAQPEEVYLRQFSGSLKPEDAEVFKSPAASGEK
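Cells expressing TRPV1 were dye-loaded with Fluo-8 and read kinetically: 10 s baseline, 3 min after compound (agonist portion), then 2 min after EC20 capsaicin (allosteric enhancer portion). Calcium-bound dye fluorescence at 480/520 nm.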
Six1-Eya2 inh: inhibitors of human Six1/Eya2 interaction. 0.56% of 360,000 active. Q15475+O00167. activity change, % (concentration not given with the values). AlphaScreen GST-Six1/His-Eya2 binding, biochemical; stronger effect = lower value; control for the full effect not named in the record; in the data active = activity change below about -65%; inconclusive = about -30% to -65%; inactive = above about -30%; note: % is set by controls: 0 for no effect and ±100 for the full control effect
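Homogeneous AlphaScreen proximity assay pairing GST-Six1 with His-tagged Eya2 (added as 5X mix: 250 nM and 500 nM) in 50 mM Tris pH 8.0, 300 mM NaCl, 1 mM TCEP. Glutathione donor and nickel acceptor beads; 1 h, 37 °C, dark.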
TRPML1 blocker: human mucolipin-1 channel inhibition; Q9GZU1; TRPML1-inducible cells, Ca2+ dye fluorescence, FDSS; stronger effect = lower value; inhibition of EC80 agonist-evoked calcium signal; activity change, negative = inhibition, % (concentration not given with the values); 0.02% of 390,000 active; AID 624415; in the data active means activity change below about -50%; inconclusive means about -30% to -50%; inactive means above about -30%;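 note: stimulus is agonist 54-4 at its EC80 concentration; % is set by controls: 0 for no effect and ±100 for the full control effect; compound concentration not given in the record; the text of the record puts the active cut at -80%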
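Tet-induced TRPML1-DL cells loaded with Ca8 no-wash calcium dye were read kinetically on FDSS. Compound addition was followed by EC80 agonist 54-4 (4 uM final); inhibition was read over 110 s.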
D2 PAM: positive allosteric modulators of human D2 dopamine receptor | DiscoveRx D2 beta-arrestin cells, luminescence, 90 min; 100% = 57 uM dopamine signal | AID 624464 | 0.23% of 360,000 active | P14416 | potentiation, % (test concentration not listed); active = potentiation of 50% or more; inconclusive = 30% to 50%; inactive = 30% or less;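 note: compound concentration not given in the record; tested on top of an EC20 dose of dopamine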
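PathHunter beta-arrestin assay in DiscoveRx D2 cells. Compounds were added with an EC20 of dopamine (50 nM final) for 90 min at 37 deg C. Luminescence was read 1 h after detection reagent, with 57 uM dopamine as the EC100 control.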
Starred values were filed as active, the others as inactive; ? = inconclusive; / = not tested or not shown; & = joins results of further samples.

structure	TRPML1 ag	CtBP-E1A inh	TRPV1 PAM	Six1-Eya2 inh	TRPML1 blocker	D2 PAM
COC(=O)c1cn(NC(=O)c2cccc(OC)c2)c(=O)c2ccccc12	0.5	-1	8	-4	3	-17
Cc1sc2ncnc(Nc3ccc(N4CCOCC4)cc3)c2c1-c1ccccc1	1.8	/	16	-20	4	-8
C[C@@H]1CCCCO[C@H](CN(C)C(=O)Nc2ccc(C(F)(F)F)cc2)[C@@H](C)CN([C@H](C)CO)C(=O)c2cc(NC(=O)c3ccncc3)ccc2O1	-0.5	-4	/	0	-3	1
CCC(C)[C@H](N)c1nnc(SCC(=O)Nc2cccc(Cl)c2)o1 (some centres not stated)	0.3	-3	21	1	26	-19
COc1ccc(CCNC(=O)c2ccc(CS(=O)Cc3ccc(Cl)cc3)o2)cc1OC (configuration not stated)	-1.1	-1	2	0	12	12
CCCCOc1ccc(C(=O)N2CCN(c3ncccn3)CC2)cc1	1.6	-21	?	12	-2	-4
CCOC(=O)c1sc(=S)n(-c2cc(OC)ccc2OC)c1N	0.2	-4	1	-21	-10	-4
COc1cccc(/C=N/NC(=O)CNC(=O)/C=C\c2ccccc2)c1O	-0.8	/	3	4	14	2
CCC1(N(C(C)=O)c2ccc(OC)cc2)C(=O)c2ccccc2C1=O	-0.1	4	-3	0	-3	5
COc1ccc(Br)cc1CNc1ccc(O)cc1	1.2	?	?	?	10	55*
CNC(=S)N(Cc1cccs1)Cc1cc2cc(OC)c(OC)cc2[nH]c1=O	0.9	-11	-2	-3	10	-25
Cc1ccc(S(=O)(=O)c2cc(C)cc(S(=O)(=O)Nc3ccc(C(=O)O)cc3)c2C)cc1	-0.6	18	4	0	-11	13
O=C(/C=C/[C@H]1O[C@@H](n2ccc(=O)[nH]c2=O)[C@H](O)[C@@H]1O)NCCCc1ccccc1	0.3	5	/	4	15	-7
COc1ccc(CN2CCCCCC2)cc1	-1.1	3	1	-5	13	-9
COc1cccc(NC(=O)CN(C)C(=O)CN2C(=O)NC3(CCCC3)C2=O)c1	0.1	-4	6	-1	26	22
O=C(NCC1CCCO1)C1CCN(S(=O)(=O)c2cccc3nonc23)CC1 (configuration not stated)	-0.7	0	5	2	1	-2
O=C(O)CN1C(=O)/C(=C/C=C/c2ccccc2)SC1=S	-0.3	/	13	0	-4	-5
CC(=O)Nc1cccc(NC(=O)C2C3C=CC(C3)C2C(=O)O)c1 (configuration not stated)	3.4	7	22	-1	-11	-2
O=C(Cn1nc(-c2ccccc2)c2ccccc2c1=O)NCCO	0.6	/	10	4	7	-2
COc1cccc(-c2ccc3c(c2)C2CC3CCN2C(=O)c2ccc(Cl)cc2)c1 (configuration not stated)	0.8	-11	/	-13	59	/
O=C(CCN1C(=O)/C(=C/c2ccc3c(c2)OCO3)SC1=S)Nc1ccc(C(=O)O)cc1	0.1	-13	21	-14	-6	-4
c1nc(NC2CCCCC2)c2[nH]cnc2n1	-0.3&-1.1	6	4	1	12	-4
Cc1nc2nc(-c3cccnc3)[nH]n2c(=O)c1Cc1ccccc1	-0.6	-9	3	-24	0	-4
Cc1ccc(C)c(N2CCN(S(=O)(=O)CC34CCC(CC3=O)C4(C)C)CC2)c1 (configuration not stated)	0.6	10	-4	0	10	-1
CCOc1ccc(N2C(=O)CC(N(Cc3ccco3)C(C)=O)C2=O)cc1 (configuration not stated)	0.0	3	-15	-2	30	-3
C/C(Cl)=C/CSc1nn2c(=O)c3ccccc3nc2s1	2.9	?	-14	?	-5	20
O=c1cnnc(N/N=C/c2c[nH]c3ccccc23)[nH]1	1.5	?	-2	?	-18	-5
CCOC(=O)C1CCN(C(=O)COC(=O)c2ccc(Br)o2)CC1	-0.1	3	1	0	15	-11
Cc1cc(=O)oc2cc(NC(=O)c3cccc(S(C)(=O)=O)c3)ccc12	0.5	0	-3	-17	1	-4
CC(C)CN1C(=O)c2ccc(NC(=O)C3CC3)cc2C1=O	1.2	6	-29	4	18	-2
CCn1cc(C(=O)NCCc2ccc(Cl)cc2)c(=O)c2ccc(C)nc21	1.5	/	-14	11	8	-12
Cc1ccccc1NS(=O)(=O)c1ccc2[nH]cc(C(=O)NC3CCCCC3)c(=O)c2c1	0.3	/	-18	/	13	/
Cc1cccc(C)c1NC(=S)NC(=O)c1cccc(Cl)c1	-0.5	7	/	-1	/	-10
CN(C)S(=O)(=O)c1ccc(NC(=O)COC(=O)c2n[nH]c3ccccc23)cc1	0.0	-1	4	-8	19	5
CC(=O)Nc1ccc(S(=O)(=O)N(Cc2ccccc2)c2ccccc2F)cc1	0.5	-1	2	-10	50	-10
O=C(NCc1ccccc1)c1cccc(NC(=O)C2CCCCC2)c1	1.4	3	/	10	-1	-6
Cn1c(CO)cnc1SCC(=O)c1ccc(Br)cc1	-0.3	-22	3	-2	7	-6
O=C(Nc1ccc(Cl)c(S(=O)(=O)N2CCOCC2)c1)c1n[nH]c(=O)c2ccccc12	-0.1	4	20	2	11	-2
Clc1ccc(N2CCOCC2)nn1	0.8	11	8	3	5	5
COc1cccc(CN2CCN(S(=O)(=O)c3ccc(NC(C)=O)cc3)CC2)c1OC	0.0	-6	-12	-3	-2	3
Cc1ccccc1-c1nnn(CC(=O)Nc2ccc3c(c2)OCO3)n1	2.2	4	3	4	-22	-7
COc1ccccc1CCNC(=O)C(=O)NCC1OCCN1S(=O)(=O)c1ccc(Cl)cc1 (configuration not stated)	1.5	2	?	0	12	-5
CCOC(=O)CN1N=C(/C=C/c2ccc(C)cc2)CCC1=O	-0.8	4	5	-3	-3	-7
COC(=O)c1ccc(C(=O)OC)c(=O)[nH]1	0.4	/	10	8	-8	-14
CCN(CC)CCCn1c2c(c(SCC(=O)Nc3cc(C)on3)nc1=O)CCC2	0.4	18	-6	-14	2	-10
CCC(C)Sc1nc2ccccc2n1CC(=O)O (configuration not stated)	-0.1	3	1	6	9	3
Cc1c(Cl)cccc1N/C(SCC(=O)N1CCCCCC1)=C(/C#N)c1nc2ccccc2s1	-0.7	-5	-3	-7	51	-11
CCOC(=O)N1CCN(c2nc3c(C)cccn3c(=O)c2C=O)CC1	1.4	-1	?	-9	-7	-8
COc1ccc(Cl)cc1C(=O)NNC(=O)c1cccs1	0.5	-3	/	2	11	-10
O=C(NN1CCOCC1)c1cc(-c2cccc(Cl)c2)nc2ccccc12	1.6	8	0	2	-17	-8
COc1ccccc1C(=O)NC(CCSC)C(=O)NCC(c1ccccc1OC)N1CCCC1 (configuration not stated)	1.6	0	-9	4	2	-15
COC(=O)CSc1[nH]c2ccc(Br)cc2c1[N+](=O)[O-]	-0.2	4	-5	-12	-9	4
Cc1ccc(-n2c(-c3ccc(Cl)cc3)n[nH]c2=S)cc1	/	/	-1	7	/	-39
COc1cccc(CN2CCN(C(=O)c3ccco3)CC2)c1	0.1	-9	12	-6	-23	?
Cc1cccc(NC(=O)N2CCC(c3nc4ccccc4o3)CC2)c1	-0.6	4	-15	0	8	-9
O=C(c1c[nH]c2ccc(S(=O)(=O)N3CCOCC3)cc2c1=O)N1CCCC1	-0.2	3	5	9	19	-1
Cc1ccccc1NCC(=O)N/N=C/C(Br)=C/c1ccccc1	1.9	5	6	-5	1	-8
COc1cc(SC)ccc1C(=O)Nc1c(C)cccc1C	1.4	10	-11	5	15	-1
Cc1ccc(C(=O)OCc2cn3ccccc3n2)cc1	-0.3	-1	-14	-1	39	-10
CCN1CCN(C(CNS(=O)(=O)c2ccc(C)cc2)c2ccccc2)CC1 (configuration not stated)	-0.2	2	2	2	6	-20

More results
structure	TRPML1 ag	CtBP-E1A inh	TRPV1 PAM	Six1-Eya2 inh	TRPML1 blocker	D2 PAM
Cc1cccc(-n2c(N)c(C(=O)N3CCN(C)CC3)sc2=S)c1	0.2	10	-5	6	9	-6
COc1ccc(OC)c(-c2c3cc(O)c(=O)cc-3oc3cc(O)c(O)cc23)c1	147*	-26	-7	?	1	-19
CNC(=S)NNC(=O)c1cc(C(C)(C)C)nn1Cc1ccc(F)cc1	0.4	-9	5	6	-6	-8
C[C@H](NC(=O)c1ccccc1Cl)C(=O)OCC(=O)N1CC2(C)CC1CC(C)(C)C2 (some centres not stated)	3.3	4	9	5	6	0
C=CCN(CC=C)CCOc1ccc(C)cc1[N+](=O)[O-]	5.6	-4	3	-2	9	-6
Oc1ccc(C=NNc2ccccn2)c(O)c1	1.5	-5	/	-91*	6	4
COc1cccc(OC)c1C(=O)Nc1sc2c(c1C(N)=O)CCCC2	1.3	?	/	?	32	-3
Cc1ccc(C(=O)OCC(=O)NN2C(=O)NC3(CCC(C)CC3)C2=O)cc1 (configuration not stated)	-0.1	0	-4	8	-22	2
CCOC(=O)c1c(C)[nH]c(C)c1S(=O)(=O)NCCCN1CCOCC1	-0.1	4	-3	0	7	-25
O=C(Nc1ccc(CN2CCOCC2)cc1)c1ccc(-c2cccc([N+](=O)[O-])c2)o1	0.1	/	-13	-23	7	-11
O=C(CSc1ncn[nH]1)Nc1ccc(S(=O)(=O)N2CCCC2)cc1	0.7	-10	10	-7	-16	4
Cc1cccc(C)c1NC(=O)Nc1nnc([C@H]2C[C@H](O)[C@@H](CO)O2)s1	-0.3	-2	/	-3	/	3
COc1ccccc1NC(=O)Cn1c(=O)sc2ccccc21	-0.7	-6	-1	-1	0	-4
COc1ccc(C(O)c2nc(-c3ccc(Cl)cc3)cs2)cc1 (configuration not stated)	0.5	9	/	1	/	4
O=C(C1=C[C@H](c2ccc(C(F)(F)F)cc2)C[C@H](OCCCCO)O1)N1CCOCC1	-0.6	-10	-8	-7	-23	-12
COc1ccc2nc(NC(=O)CN3CCN(C)CC3)sc2c1	-0.2	-3	1	6	-2	-5
CCn1c2ccccc2c2cc(CNCc3ccc(OC)cc3OC)ccc21	1.9	-2	22	-17	2	-3
CCOC(=O)c1c(NC(C)=O)no[n+]1[O-]	0.2	13	14	2	-13	-6
CC(NC(=O)C1CCCCC1)C(=O)NC1=NCCS1 (configuration not stated)	-0.2	3	-4	-1	8	-14
O=C(COC(=O)c1cc(S(=O)(=O)N2CCOCC2)ccc1O)NCc1ccc2c(c1)OCO2	-0.8	9	-6	-2	-14	-20
COc1cccc(/C=N/n2c(=O)[nH]c3ccccc32)c1OC	0.6	0	5	-8	-14	-14
CCCCn1c(NCc2ccc(N(C)C)cc2)nc2ccccc21	-0.3&3.2	-8	/	?	-5&36	-24
O=c1[nH]nc(-c2ccc(F)cc2)cc1-c1ccccc1	-0.1	0	-18	-4	4	-1

Arranged by value in Six1-Eya2 inh (lowest first): 3 from the list above.
Structure,Six1-Eya2 inh
O=C(C1=C[C@H](c2ccc(C(F)(F)F)cc2)C[C@H](OCCCCO)O1)N1CCOCC1,-7
COc1ccccc1NC(=O)Cn1c(=O)sc2ccccc21,-1
COc1ccc2nc(NC(=O)CN3CCN(C)CC3)sc2c1,6

High-throughput results: PubChem, National Center for Advancing Translational Sciences (NCATS)
